# miR-21 reporter = raises the signal of a miR-21 reporter. HeLa miR-21 FLuc reporter, luciferase, 48 h. Potency, µM (doses to about 38.3 µM), inactives show top-dose reporter change, positive = more light. 340,000 tested, under 10 active; active = well fitted rising curve with a large enough effect; inconclusive = small, poorly fitted or top-dose-only effect; inactive = no such curve, though single readings can be large or run the other way;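 note: % of control where 0% means no effect; miR-21 action dims this reporter so a rising signal means less miR-21 action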
#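 Compounds were titrated across several concentrations (up to approximately 40 uM) and incubated 48 hours with HeLa miR-21-FLuc reporter cells (miR-21 target sequence downstream of FLuc, endogenous miR-21). Readout was firefly luciferase luminescence after lytic detection reagent.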
# Rango dissoc inh = inhibition of RanGTP-driven Rango-importin beta dissociation; Biochemical FRET Rango-importin beta, RanGTP-induced dissociation; Potency, µM (series often up to 46.1 µM), without a hit: at the highest dose activity change, negative = inhibition; 340,000 tested, 0.071% active; active means falling FRET ratio curve, often poorly fitted, with flat reads before Ran was added; inconclusive means other falling curves, or compound fluorescence or quenching; inactive means flat or rising ratio curve;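 note: potency is the fitted concentration of half-maximal effect; % of control where 0% means no effect; nearly all actives have a fitted effect of over 45% in size; -100% = wells without RanGTP and RCC1; the record marks most hits as doubtful in a second field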
#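 Rango (0.1 uM)–importin beta (0.25 uM) complex; RanGTP-RCC1 trigger; 45 min RT; CFP/YFP FRET read.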
# GLA inh pH 4.5 = inhibitors of human alpha-galactosidase A at pH 4.5 | activity change, negative = inhibition, % at 105 µM | P06280 | AID 1467 | purified enzyme, 4-MU-alpha-Gal fluorescence, pH 4.5 | 230,000 tested, under 10 active; inconclusive = small, poorly fitted or top-dose-only inhibition, or a rising curve; inactive = flat fitted curve, though single readings scatter; no compound was filed as active;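 note: 0% = full activity with enzyme and -100% = basal without enzyme; dose as in the result columns while the protocol names 77 µM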
# Rango complex inh = prevents formation of the Rango-importin beta complex; Potency, µM (top dose mostly 92.2 µM), for inactives: at the highest dose inhibition of complex formation; AID 540263; Q14974; Rango CFP/YFP FRET sensor + importin beta, 45 min; 340,000 tested, 0.031% active; active = rising FRET ratio curve, often small or poorly fitted; inconclusive = mostly compound fluorescence or quenching in the first reads; inactive = flat curves in all reads;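 note: potency is the fitted concentration of half-maximal effect; 0% = DMSO wells and 100% = buffer wells lacking importin beta; nearly all actives have a fitted effect of over 15% in size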
# Target sequence (Q14974 whole entry, looked up): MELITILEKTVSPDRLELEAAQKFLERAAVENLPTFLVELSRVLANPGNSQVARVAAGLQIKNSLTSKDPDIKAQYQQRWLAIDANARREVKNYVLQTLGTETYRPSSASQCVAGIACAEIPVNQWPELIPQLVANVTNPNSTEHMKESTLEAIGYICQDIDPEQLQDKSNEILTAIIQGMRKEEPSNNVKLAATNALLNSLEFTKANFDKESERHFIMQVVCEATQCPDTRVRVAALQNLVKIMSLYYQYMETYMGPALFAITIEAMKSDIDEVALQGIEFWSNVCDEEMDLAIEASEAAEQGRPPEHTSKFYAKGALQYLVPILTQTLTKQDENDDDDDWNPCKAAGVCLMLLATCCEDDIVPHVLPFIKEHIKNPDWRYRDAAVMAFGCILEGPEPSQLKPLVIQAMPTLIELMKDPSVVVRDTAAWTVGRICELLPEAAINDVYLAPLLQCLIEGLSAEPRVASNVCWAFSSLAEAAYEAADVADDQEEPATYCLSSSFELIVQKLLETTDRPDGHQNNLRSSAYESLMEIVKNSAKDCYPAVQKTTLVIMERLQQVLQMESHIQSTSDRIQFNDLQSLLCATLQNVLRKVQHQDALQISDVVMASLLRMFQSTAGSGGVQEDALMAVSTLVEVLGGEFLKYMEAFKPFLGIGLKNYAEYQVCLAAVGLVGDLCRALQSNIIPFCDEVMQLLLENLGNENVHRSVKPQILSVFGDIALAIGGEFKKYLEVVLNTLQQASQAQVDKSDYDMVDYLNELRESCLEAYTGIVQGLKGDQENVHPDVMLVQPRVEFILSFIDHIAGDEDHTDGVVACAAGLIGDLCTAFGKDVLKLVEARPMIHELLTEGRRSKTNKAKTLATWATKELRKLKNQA
#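 FRET biosensor Rango (snurportin 1 IBB between N-terminal EYFP and C-terminal Cerulean), 50 nM in PBS/1 mM DTT/0.02% Tween-20/0.1% BSA, preincubated 5 min RT with compound; 0.125 microM importin beta added, 45 min RT, CFP/YFP FRET ratio read.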
# Starred values were filed as active, the others as inactive; ? = inconclusive; . = not tested or not shown; & = joins results of further samples.
# Short keys: A = miR-21 reporter; B = Rango dissoc inh; C = GLA inh pH 4.5; D = Rango complex inh
> O=C(COc1ccccc1)Nc1nc2cc3c(cc2s1)OCO3
  A: . | B: 3% | C: . | D: -3.9%
> CC(=O)c1ccc(N2CCN(C(=S)Nc3ccc(Oc4ccccc4)cc3)CC2)cc1
  A: 26% | B: 11% | C: -10 | D: -0.9%
> CN(C)CCCN(Cc1cc2cc3c(cc2[nH]c1=O)OCO3)C(=S)Nc1cccc(Cl)c1
  A: -6% | B: 2% | C: 4 | D: -0.2%
> CC(Oc1ccc(Cl)cc1Cl)C(=O)NCCCN1CCOCC1 (stereo unspecified)
  A: -3% | B: -7% | C: 2 | D: -10%
> CC(C)=C(NC(=O)c1ccccc1)C(=O)NCc1ccccc1
  A: -10% | B: 0% | C: 0 | D: -2.2%
> COC(=O)c1cccc(C23CC4(C2)[C@H](CN(Cc2ccc(-c5ccccc5)cc2)[C@@H]4c2ccccc2)C3c2ccccc2)c1 (stereo partly specified)
  A: 0% | B: -15% | C: -3&0 | D: 0.5%
> CCC(=O)N1CCc2cc(S(=O)(=O)N3CCN(C(=O)c4ccco4)CC3)ccc21
  A: -17% | B: -3% | C: -1 | D: -0.9%
> COc1ccc(/C=N/NC(=O)COc2cc(C)cc(C)c2)cc1COC(C)=O
  A: -12% | B: -8% | C: 6 | D: 2.8%
> CCOC(=O)NC(Nc1ccc(OC)cc1)(C(F)(F)F)C(F)(F)F
  A: -12% | B: 8% | C: -5 | D: 3.5%
> COc1ccccc1CC(=O)O/N=C(\N)Cc1cccc2ccccc12
  A: -30% | B: 12% | C: 1 | D: 3.1%

# Part of the list above, limited to Rango dissoc inh and miR-21 reporter.
structure	Rango dissoc inh	miR-21 reporter
CN(C)CCCN(Cc1cc2cc3c(cc2[nH]c1=O)OCO3)C(=S)Nc1cccc(Cl)c1	2%	-6%
CC(Oc1ccc(Cl)cc1Cl)C(=O)NCCCN1CCOCC1 (stereo unspecified)	-7%	-3%
CC(C)=C(NC(=O)c1ccccc1)C(=O)NCc1ccccc1	0%	-10%
COC(=O)c1cccc(C23CC4(C2)[C@H](CN(Cc2ccc(-c5ccccc5)cc2)[C@@H]4c2ccccc2)C3c2ccccc2)c1 (stereo partly specified)	-15%	0%
CCC(=O)N1CCc2cc(S(=O)(=O)N3CCN(C(=O)c4ccco4)CC3)ccc21	-3%	-17%
COc1ccc(/C=N/NC(=O)COc2cc(C)cc(C)c2)cc1COC(C)=O	-8%	-12%
CCOC(=O)NC(Nc1ccc(OC)cc1)(C(F)(F)F)C(F)(F)F	8%	-12%

# (cont.)
# Short keys: A = miR-21 reporter; B = Rango dissoc inh; C = GLA inh pH 4.5; D = Rango complex inh
> Cc1cc(C)nc(CCNC(=O)c2cc(COc3ccccc3)on2)n1
  A: -23% | B: -8% | C: . | D: -1.2%
> O=C(NCc1ccccn1)Nc1ccc(Br)cc1Cl
  A: -52% | B: -1% | C: . | D: 1.2%
> CC(NC(=O)Nc1ccccn1)N1C(=O)C2C3C=CC(C3)C2C1=O (stereo unspecified)
  A: -2% | B: -2% | C: -2 | D: 0.2%
> CCCCCSc1nnc2c(n1)OC(C)N(C(C)=O)c1ccccc1-2 (stereo unspecified)
  A: 0% | B: 5% | C: -6 | D: 4.8%
> COc1ccc(NS(=O)(=O)c2cc(Br)cc3c2N(C(C)=O)CC3)cc1
  A: ? | B: 8% | C: . | D: -0.6%
> COc1cccc(CN2CCC(C(=O)N3CCN(Cc4ccc5c(c4)OCO5)CC3)CC2)c1OC
  A: 1% | B: 1% | C: . | D: 0.2%
> CCCOC(=O)c1ccc(Oc2cn[nH]c2-c2ccc(OC)cc2O)cc1
  A: 16% | B: 8% | C: 2 | D: 3.7%
> Cc1nnc(SCc2c(Cl)cccc2[N+](=O)[O-])s1
  A: -24% | B: -16% | C: -1 | D: 1.6%
> CN(C)C=NC1=NN(c2cccc(C(F)(F)F)c2)CC1
  A: -8% | B: 11% | C: -4 | D: 1.9%
> O=C(c1ccccc1)c1cccn1CC(=O)N1CCc2ccccc2C1
  A: -2% | B: 5% | C: -4 | D: 1.4%

# Reformatted as tab-separated lines: part of the list above
Molecule	miR-21 reporter	Rango dissoc inh	GLA inh pH 4.5	Rango complex inh
Cc1cc(C)nc(CCNC(=O)c2cc(COc3ccccc3)on2)n1	-23%	-8%	.	-1.2%
O=C(NCc1ccccn1)Nc1ccc(Br)cc1Cl	-52%	-1%	.	1.2%

# Following part:
# Short keys: A = miR-21 reporter; B = Rango dissoc inh; C = GLA inh pH 4.5; D = Rango complex inh
> O=C(COC(=O)C1(c2ccccc2F)CCCC1)NC1CCS(=O)(=O)C1 (stereo unspecified)
  A: 3% | B: 0% | C: 12 | D: 4.6%
> Cc1cccc(-c2nc(N)nc(N)n2)c1
  A: -46% | B: 4% | C: 1 | D: -0.5%
> COc1ccc(NS(=O)(=O)c2ccc(S(=O)(=O)N3CCOCC3)cc2)cc1
  A: 6% | B: -2% | C: -1 | D: -0.3%
> COc1ccc(/C=N/NC(=O)CC(=O)NC2CCCCC2)cc1
  A: -4% | B: 5% | C: 11 | D: -0.3%
> CCC1CCCCN1CCNS(=O)(=O)c1ccc2c(c1)oc(=O)n2C (stereo unspecified)
  A: -9% | B: -4% | C: 5 | D: 0.0%
> COc1ccc(NS(=O)(=O)c2cccc(C(=O)OCC(=O)N3CCN(c4ccc(OC)cc4)CC3)c2)cc1
  A: . | B: 8% | C: . | D: -2.3%
> COc1ccc(C(CNC(=O)Nc2ccccc2)N2CCN(C)CC2)cc1 (stereo unspecified)
  A: -7% | B: -9% | C: . | D: -1.7%
> Cc1ccccc1CN1CCN(S(=O)(=O)c2cccs2)CC1
  A: -6% | B: 6% | C: 3 | D: -1.4%
> COc1ccc(NC(=O)Cc2nnc(SCC(=O)Nc3nccs3)n2C)cc1
  A: 8% | B: 9% | C: . | D: -1.1%
> Cc1cccc([N+](=O)[O-])c1NC(=O)COC(=O)C1CCCO1 (stereo unspecified)
  A: . | B: 2% | C: . | D: 3.7%
> COc1ccc(S(=O)(=O)Cc2ccc(C(=O)N3CCN(c4cc(C)ccc4C)CC3)o2)cc1
  A: -8%&-4% | B: 10% | C: . | D: 1.4%
> CCc1nnc(NC(=O)c2ccc(NS(=O)(=O)c3ccccc3)cc2)s1
  A: 0% | B: 0% | C: 5 | D: 2.6%
> CCOC(=O)C(C)Sc1ccc2nnc(-c3ccc(F)cc3)n2n1 (stereo unspecified)
  A: -1% | B: -1% | C: -2 | D: 4.1%
> O=[N+]([O-])c1ccc(OS(=O)(=O)Cc2ccccc2)cc1
  A: -8% | B: 20% | C: 4 | D: -2.7%
> CC(C)(C)NC(=O)C(c1c[nH]c2ccccc12)N(C(=O)Cn1nnc(-c2ccc(Cl)cc2)n1)c1ccccc1F (stereo unspecified)
  A: 2% | B: 10% | C: 3 | D: -1.6%
> COc1ccc(NC(=S)N2CCNC(=O)C2CC(=O)Nc2cccc(Cl)c2C)cc1 (stereo unspecified)
  A: -13% | B: -4% | C: 14 | D: -0.8%
> CC(C)CC1=C/C(=C/c2ccc(-c3ccccc3)o2)C(=O)O1
  A: -35% | B: ? | C: -4 | D: ?
> CCN(CC)c1ccc(C(=O)NNC(=O)CN2C(=O)NC3(CCCCC3)C2=O)cc1
  A: . | B: -1% | C: . | D: -0.9%
> O=C(CS(=O)(=O)c1ccccc1)N1CCc2ccccc21
  A: -54% | B: 5% | C: 1 | D: 2.1%
> NS(=O)(=O)c1ccc(CCNC2CC(=O)N(CCc3ccccc3)C2=O)cc1 (stereo unspecified)
  A: 1% | B: 3% | C: -10 | D: 0.0%
> C/C(=N\O)C(C)(C)Nc1cccc(F)c1
  A: -1% | B: 15% | C: 1 | D: 0.6%
> COc1cccc(OC)c1C(=O)NC(=S)NCc1ccccc1
  A: 0% | B: 15% | C: 7 | D: -3.5%
> O=C(/C=C/NNC(=O)c1cccc(Br)c1)c1cccc(Br)c1
  A: 10% | B: -20% | C: 3 | D: ?
> Cc1ccc(NC(=O)CCNS(=O)(=O)c2ccc3[nH]c(=O)oc3c2)c(C)c1
  A: 5% | B: -6% | C: . | D: -0.1%
> Cc1ccc(/C=C2/NC(=O)N(Cc3ccccc3)C2=O)o1
  A: 7% | B: -22% | C: -12 | D: ?
> COc1cccc(CNC(=O)CN(C)S(=O)(=O)c2ccc3c(c2)n(C)c(=O)c(=O)n3C)c1
  A: 0% | B: ? | C: . | D: -0.6%
> Fc1cccc(CSc2ccc3nnc(-c4ccccn4)n3n2)c1
  A: -13% | B: -8% | C: -23 | D: -0.3%
> COc1cc(OC)cc(C(=O)NCCc2cnc[nH]2)c1
  A: 0% | B: 0% | C: . | D: 0.6%
> CCOc1ccccc1C1c2[nH]c3ccccc3c2C[C@H]2C(=O)N(C3CC3)CC(=O)N12 (stereo partly specified)
  A: -4% | B: -1% | C: . | D: 0.3%
> CCC(=O)Nc1cccc(NC(=O)CSc2nnc(-c3ccc(NS(C)(=O)=O)cc3)n2CC)c1
  A: -4% | B: -12% | C: 6 | D: 4.1%
> Cc1cc2c(NC(=O)CCCC(=O)O)cccc2nn1
  A: -5% | B: 1% | C: -10 | D: 2.2%
> Cc1ccc(N=Cc2ccc(N(C)C)cc2)cc1
  A: 0% | B: -3% | C: 2 | D: -4.5%
> Cc1cccc(NC(=S)N2CCN(c3cc(C)ccc3C)CC2)c1
  A: -6% | B: 0% | C: -1 | D: 2.2%
> COc1cc(/C=C/C(=O)NC(C)(C)C)ccc1OCc1ccccc1
  A: -4% | B: -6% | C: -4 | D: 0.1%
> N=c1c2c(n(Cc3ccc(Cl)c(Cl)c3)c3c1CCC3)CCCC2
  A: ? | B: 15% | C: -3 | D: 4.3%
> CCCNc1nc(-c2ccccc2)c(C(=O)OCC)cc1C#N
  A: 13% | B: 5% | C: -3 | D: 4.6%
> CN(CC(=O)Nc1ccccc1Br)C(=O)c1n[nH]c2ccccc12
  A: . | B: -6% | C: . | D: 3.2%
> COc1cc(C(=O)N2CCN(C(=O)Cc3ccccc3)CC2)cc(OC)c1OC
  A: 5% | B: 5% | C: 4 | D: 2.9%
> CC(=O)N1CCN(C(=O)C2(NC(=O)Nc3ccccc3Cl)CCCCC2)CC1
  A: -2% | B: 15% | C: . | D: 3.5%
> O=C(Nc1ccc(Br)cn1)c1ccc([N+](=O)[O-])o1
  A: 6% | B: -17% | C: -9 | D: -0.7%
> Cc1cc(C)c(-c2cc(NC(=O)COC(=O)c3ccc(NC(=O)CC#N)cc3)n(-c3ccccc3)n2)cc1C
  A: . | B: 9% | C: . | D: ?
> O=C(COc1ccccc1)N=C1SC2CS(=O)(=O)CC2N1c1ccc(F)cc1F (stereo unspecified)
  A: -2% | B: -7% | C: . | D: -1.6%
> COc1ccc(OC)c(NC(=O)CCNS(=O)(=O)c2ccc3c(c2)oc(=O)n3C)c1
  A: -4%&-2% | B: -2% | C: 8 | D: 0.9%
> CCOC(=O)C1=C(C)N(c2ccc(C)cc2)C(=O)/C1=C\c1ccc(O)c(OC)c1
  A: 11% | B: -14% | C: -17 | D: -3.7%
> Cc1ccn2c(c1)nc(=O)c1cc(S(=O)(=O)N3CCOCC3)ccc12
  A: 1% | B: 1% | C: . | D: -4.7%
> CSc1nc2ccc(S(=O)(=O)Nc3c(C)n(C)n(-c4ccccc4)c3=O)cc2s1
  A: 9% | B: 1% | C: -8 | D: -3.5%
> Cc1cc(C)n2c(SCCC(C)C)nnc2n1
  A: -37% | B: -16% | C: 0 | D: 3.2%
> Cc1onc(-c2c(Cl)cccc2Cl)c1C(=O)Nc1nc(C(C)(C)C)cs1
  A: 17% | B: 7% | C: -19 | D: -2.7%
> N#Cc1ccc(N2CCCNCC2)nc1
  A: -3% | B: 16% | C: . | D: 0.6%
> O=S1(=O)CCN2C(=N1)Sc1c2ccc2c1CCCC2
  A: -65% | B: -10% | C: -5 | D: -0.4%

# Not all compounds are listed; the hit share may differ from the screen's.
